Screening results (PubChem)
PMP22 txn prim = Cell-based coincidence reporter assay to measure PMP22 gene transcription in S16 Pmp22-F2sN cells - Primary screen; S16 Pmp22-F2sN Schwann cells (luciferase reporters placed in the Pmp22 gene), FLuc/NLuc coincidence luminescence, 24 h; Potency, µM (series often up to 57.5 µM), without a hit: top-dose activity change, negative = inhibition, most hits filed as inhibitors; hit rate 2% among 43,000; active = clear falling dose curves in both reporters; inconclusive = both reporters move, but less clearly or upward; inactive = either reporter flat; the % is the NLuc reporter signal; note: % is set by controls: 0 for no effect and ±100 for the full control effect; some results filed as inactive show a strong effect at the top dose
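qHTS, 1536-well. Cells seeded, compounds added by pin tool, 24 h 37C. Nano-Glo reagent 1 (lysis/FLuc), 10 min RT, read; Stop&Glo, 10 min RT, read NLuc.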
HTT prom inh = Primary qHTS for Identification of Small Molecule Inhibitors of Huntingtin Promoter Activity. Potency, µM (series often up to 57.5 µM), for inactives: at the top dose activity change, negative = inhibition, actives largely listed as inhibitors. hit rate 0.93% among 48,000. AID 1508623, 2021. HEK293 HTT promoter firefly luciferase reporter (activity 0% = vehicle and -100% = no light), 24 h; active = well fitted inhibition curve with a large enough effect; inconclusive = small, poorly fitted or top-dose-only effect; inactive = no such curve, though single readings can be large or run the other way; note: nearly all actives have a fitted effect of over 50% in size
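HEK293 cells carrying firefly luciferase reporters were seeded at 2,500 per well in Opti-MEM and cultured for 24 h. They were then treated with compounds at up to 57.5 uM final for 24 h at 37 degrees C before Dual-Glo luminescence readout.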
An asterisk follows results filed as active; u = inconclusive; x = no result given; [ ] = dose if it differs, or a comment. Potency is the fitted concentration of half-maximal effect.

SMILES	PMP22 txn prim	HTT prom inh
COc1ccc(-c2cn3nc(N4CCCC(C(=O)Nc5cc(Cl)ccc5OC)C4)sc3n2)cc1 (centres undefined)	-107%	-4%
C[C@@H]1C[C@H]2[C@@H]3C[C@H](F)C4=CC(=O)C=C[C@]4(C)[C@@]3(F)[C@@H](O)C[C@]2(C)[C@@]1(O)C(=O)CO	x	10%
CSc1cccc(NC(=O)C2CCCN(C(=O)c3cnn(-c4ccc(F)cc4)c3-n3cccc3)C2)c1 (centres undefined)	u	u
Cc1nnc(NC(=O)CSc2nccn2-c2ccc(Cl)cc2)s1	13%	u
CC(=O)O[C@]1(C(C)=O)CC[C@H]2[C@@H]3C[C@H](C)C4=CC(=O)CC[C@]4(C)[C@H]3CC[C@@]21C	x	-7%
CCOc1ccc2nc(N3CCCC(C(=O)NCc4ccc(OC)cc4)C3)sc2c1 (centres undefined)	-1%	15%
CCCCC(=O)Nc1cc(-c2nc3cccnc3s2)ccc1C	-25%	26%
CCN(CC)c1ccc(NC(=O)CN2CCN(c3ccccc3F)CC2)cc1	-9%	-17%
CC(=O)N1CCCc2ccc(NS(=O)(=O)c3cccc(Cl)c3)cc21	-1%	-11%
COc1ccc(CNC(=O)CCCn2nc(C)c3sc4ccccc4c3c2=O)cc1OC	u	-5%
Cc1cc(-c2ccc(C)c(S(=O)(=O)NCc3cccc(Br)c3)c2)on1	-7%	-24%
Cc1cccc(N(CC(=O)NCCSCc2ccccc2)S(=O)(=O)c2ccccc2)c1C	u	u
COc1ccccc1CNC(=O)c1cc2c(s1)-c1ccccc1OC2	-13%	10%
Cc1ccc(OC(=O)c2cc(-c3ccccc3)nc3ccc(C)cc23)cc1	u	-12%
O=C(CC(c1cccs1)N1Cc2ccccc2C1=O)Nc1cccc(F)c1 (centres undefined)	-19%	u
Cc1ccc(CNC(=O)c2cc(-c3ccc(C)cc3)nc3n[nH]c(-c4ccc(F)cc4)c23)cc1	-4%	-16%
CCCCN(CC)CCCNC(=O)c1c(C)oc2ncnc(N3CCOCC3)c12	6%	-9%
CC(C)C[C@@H](C=O)NC(=O)[C@H](CC(C)C)NC(=O)[C@H](CC(C)C)NC(=O)OCc1ccccc1	x	u
CC(C)c1ccc(NC(=O)C2Cc3ccccc3N2C(=O)c2ccccc2)cc1 (centres undefined)	u	u
CCOC(=O)c1noc2ncn(CC(=O)Nc3ccc(OC)c(Cl)c3)c(=O)c12	2%	-8%
CCOc1ccccc1CNCCCSc1nnnn1C	-1%	-8%
CCN1CCSc2ccc(C(=O)NC(C)c3ccccc3)cc21 (centres undefined)	-34%	-16%
Cc1nc2sccn2c(=O)c1S(=O)(=O)Nc1ccc(N2CCN(C(=O)C(C)C)CC2)cc1	-17%	-31%
Cc1cc(F)ccc1S(=O)(=O)Nc1ccc2c(c1)CCCN2C(=O)c1cccs1	u	u
CCN1C(=O)CC(C(=O)Nc2ccc(OC)cc2)SC1=Nc1ccc(C)c(C)c1 (centres undefined)	-12%	-13%
The results go on:
SMILES	PMP22 txn prim	HTT prom inh
COCc1cc(C)nc2sc3c(c12)NC(c1ccc(NC(C)=O)cc1)N(c1ccc(C)cc1)C3=O (centres undefined)	u	12%
O=c1oc2c(CN3CCCC3)c(O)ccc2cc1-c1ccccc1	-8%	25%
COc1ccc(C)cc1NCc1nnc2n1CCCCC2	10%	-9%
COC(=O)c1c(NC(=O)c2nc(SC)ncc2Cl)sc2c1CCCC2	-3%	-18%
CCCCSc1nnc2c(n1)OC(c1ccc(Br)s1)N(C(C)=O)c1ccccc1-2 (centres undefined)	u	u
CCc1nc2ccc(C(=O)N3CCN(c4ccccc4F)CC3)cc2nc1CC	u	u
CCCCOc1ccccc1C(=O)N(Cc1ccc(C)o1)C1CCS(=O)(=O)C1 (centres undefined)	12%	-18%
O=C(NCCc1ccccc1)c1nc(-c2ccc(Cl)cc2)n2c1CCCCC2	u	u
CCOc1ccccc1C(=O)N1CCc2cc(OC)c(OC)cc2C1COc1ccc2c(C)cc(=O)oc2c1 (centres undefined)	u	-17%
CCCSC1=NC2(CCN(C(=O)NC3CCCCC3)CC2)N=C1c1ccc(C)cc1	3%	-12%
Cc1cc(C(=O)N2CCN(c3cc(Cl)ccc3C)CC2)c2c(C)nn(-c3ccccc3)c2n1	-10%	u
Cc1oc2ncnc(N3CCCCC3)c2c1C(=O)N1CCN(c2ccc(Cl)cc2)CC1	u	17%
O=C(C1CCN(c2ncnc3c2nc2n3CCCCC2)CC1)N1CCN(c2ccccc2)CC1	u	u
COc1cccc(OC)c1C(=O)Nc1nc2c(s1)CCc1ccccc1-2	-39%	-12%
COc1ccc(OC)c(NC(=O)Cn2c(=O)n(Cc3ccco3)c(=O)c3cc(OC)c(OC)cc32)c1	u	-9%
Cc1ccccc1CN1C(=O)c2ccccc2Sc2ccc(C(=O)O)cc21	-25%	-7%
CC(C)(C)OC(=O)N1CCC(c2c(C(=O)NCc3cccs3)cnn2-c2ccc(F)cc2F)CC1	-30%	u
N#Cc1ccccc1Cn1c(=O)n(-c2cccc(C(F)(F)F)c2)c(=O)c2sccc21	1%	-17%
COc1ccc(Cl)cc1NC(=O)NCc1noc2ccccc12	-14%	-24%
CCOC(=O)c1c(C)[nH]c(CCC(=O)NCCCN2CCN(c3cccc(Cl)c3)CC2)c1C	18µM*	-29%
Cc1nc2sccn2c(=O)c1S(=O)(=O)Nc1ccc(N2CCN(C)CC2)cc1	-25%	-16%
COc1ccc(-c2noc(N(c3nc(-c4ccc(OC)c(OC)c4)no3)c3ccccc3OC)n2)cc1OC	u	-1%
CCC1CN(C(=O)N2CCC(C(=O)NCc3ccco3)CC2)c2cc(C)ccc2O1 (centres undefined)	-11%	-14%
COC(=O)c1c(C)sc(-c2c(-c3ccc4c(c3)OCCO4)[nH]c3c2c(=O)[nH]c(=O)n3C)c1O	u	-19%
COc1ccccc1NC(=O)CSc1oc(-c2ccco2)nc1S(=O)(=O)c1ccc(Br)cc1	u	u

Ordered by formula weight (falling): 17 of the compounds above.
SMILES	PMP22 txn prim	HTT prom inh
COc1ccc(-c2cn3nc(N4CCCC(C(=O)Nc5cc(Cl)ccc5OC)C4)sc3n2)cc1 (centres undefined)	-107%	-4%
COc1ccc(OC)c(NC(=O)Cn2c(=O)n(Cc3ccco3)c(=O)c3cc(OC)c(OC)cc32)c1	u	-9%
Cc1nc2sccn2c(=O)c1S(=O)(=O)Nc1ccc(N2CCN(C(=O)C(C)C)CC2)cc1	-17%	-31%
CCOC(=O)c1c(C)[nH]c(CCC(=O)NCCCN2CCN(c3cccc(Cl)c3)CC2)c1C	18µM*	-29%
Cc1cc(C(=O)N2CCN(c3cc(Cl)ccc3C)CC2)c2c(C)nn(-c3ccccc3)c2n1	-10%	u
Cc1ccc(CNC(=O)c2cc(-c3ccc(C)cc3)nc3n[nH]c(-c4ccc(F)cc4)c23)cc1	-4%	-16%
Cc1cc(F)ccc1S(=O)(=O)Nc1ccc2c(c1)CCCN2C(=O)c1cccs1	u	u
N#Cc1ccccc1Cn1c(=O)n(-c2cccc(C(F)(F)F)c2)c(=O)c2sccc21	1%	-17%
CCOc1ccc2nc(N3CCCC(C(=O)NCc4ccc(OC)cc4)C3)sc2c1 (centres undefined)	-1%	15%
CCN1C(=O)CC(C(=O)Nc2ccc(OC)cc2)SC1=Nc1ccc(C)c(C)c1 (centres undefined)	-12%	-13%
C[C@@H]1C[C@H]2[C@@H]3C[C@H](F)C4=CC(=O)C=C[C@]4(C)[C@@]3(F)[C@@H](O)C[C@]2(C)[C@@]1(O)C(=O)CO	x	10%
COC(=O)c1c(NC(=O)c2nc(SC)ncc2Cl)sc2c1CCCC2	-3%	-18%
CC(=O)O[C@]1(C(C)=O)CC[C@H]2[C@@H]3C[C@H](C)C4=CC(=O)CC[C@]4(C)[C@H]3CC[C@@]21C	x	-7%
Cc1nnc(NC(=O)CSc2nccn2-c2ccc(Cl)cc2)s1	13%	u
Cc1ccc(OC(=O)c2cc(-c3ccccc3)nc3ccc(C)cc23)cc1	u	-12%
COc1ccc(Cl)cc1NC(=O)NCc1noc2ccccc12	-14%	-24%
CCN1CCSc2ccc(C(=O)NC(C)c3ccccc3)cc21 (centres undefined)	-34%	-16%

Following part:
SMILES	PMP22 txn prim	HTT prom inh
COCCCNC(=O)C1CCN(C(=O)c2cc3sccc3n2Cc2ccc(Cl)cc2)CC1	u	u
Cc1c(Cl)cccc1-c1ccc(C(=O)Nc2ccc(F)cc2)o1	-9%	-4%
c1ccc(CSc2nnc(C3CCNCC3)o2)cc1	u	-6%
Cc1ccc(-c2nc3c4cnn(-c5cc(Cl)ccc5Cl)c4ncn3n2)cc1	4%	2%
CCc1ccccc1NC(=O)[C@H](Cc1ccccc1)N1Cc2ccccc2C1=O	-6%	-3%
NS(=O)(=O)c1ccc(NC(=O)C(=O)Nc2ccc3nc4n(c(=O)c3c2)CCCCC4)cc1	-18%	13%
Cc1ccc2nc3c(cc(C(=O)NC4CCCC4)c(=N)n3C(C)C)c(=O)n2c1	u	1%
CCCOC(=O)c1c(NC(=O)c2cc3ccccc3c(=O)o2)sc2c1CCC(C)C2 (centres undefined)	3%	-14%
CCn1c(=O)cc(OCC(=O)Nc2ccc(C)c(F)c2)c2ccccc21	u	-6%
COCCNC(=O)C(=O)Nc1c2c(nn1-c1ccccc1)CS(=O)(=O)C2	10%	-4%
COc1ccc(CC(=O)Nc2sc3c(c2C(=O)Nc2ccccc2)CCCCC3)cc1	u	u
Cc1ccn2c(=O)cc(COc3ccc(NC(=O)C(C)(C)C)cc3)nc2c1	-2%	-8%
CCOC(=O)c1ccc(NC(=O)c2oc3c(c2C)-c2nn(Cc4ccccc4Cl)cc2CC3)cc1	-16%	-16%
CCN(Cc1ccccc1)Cc1c(O)ccc2c(=O)c(-c3ccc(Cl)cc3Cl)coc12	-1%	-19%
CCc1ccc(OCC(=O)NCC(c2ccc(Cl)cc2)N2CCOCC2)cc1 (centres undefined)	u	u
CCOc1ccccc1NC(=O)Cn1c(=O)n(-c2ccc(F)cc2)c(=O)c2sc3ccccc3c21	-22%	-5%
CCCN(C(=O)c1cc2c(=O)oc3ccccc3c2s1)c1ccccc1C	u	-7%
O=C(CCCCCn1c(=O)[nH]c2ccccc2c1=O)N1CCN(c2cccc(C(F)(F)F)c2)CC1	u	-7%
CCn1c(CN2CCC(C)CC2)nc2cc(NC(=O)c3ccc([N+](=O)[O-])cc3)ccc21	u	u
CC(C)(C)OC(=O)N1CCC(c2nnc(SCc3cccc(Cl)c3)o2)CC1	-34%	-36%
Cc1ccc(Cl)cc1N1CCN(C(=O)c2ccc3c(c2)CCN3S(=O)(=O)c2ccccc2)CC1	-27%	u
CCCCN(CC)CCNC(=O)c1cn(C)c(=O)c2c1c1ccccc1n2C	-26%	0%
COc1ccc(CNc2nc(-c3ccc(Cl)cc3)nn2C(=O)c2ccccc2)cc1	-44%	-2%
CCn1nc(C)c2c(-c3ccccc3)cc(=O)n(C(C)C(=O)NCCc3ccc(Cl)cc3)c21 (centres undefined)	u	-20%
CCOC(=O)c1c(C)[nH]c(C)c1S(=O)(=O)N(C)CC(=O)N1CCN(c2cccc(Cl)c2)CC1	u	u
More structures.
SMILES	PMP22 txn prim	HTT prom inh
Cc1cccc(N2CCN(CCNC(=O)Nc3ccc(Cl)cc3)CC2)c1C	u	u
CCCCSc1nc(-c2cccc(OC)c2)nc2c1Cc1c(CO)cnc(C)c1O2	-8%	-9%
CCN(CC)c1ccc(NC(=O)Cn2nc3c(cc2=O)CCCC3)c(C)c1	-13%	0%
CCOC(=O)c1ccc(-n2c(CCC(=O)O)ccc2-c2ccccc2)cc1	5%	5%
CCOc1ccc(C(=O)Nc2cc3c(cc2N2CCCC2)n(C)c(=O)c(=O)n3C)cc1OCC	-16%	0%
COC(=O)CC1Oc2ccc(Cl)cc2-n2cc(-c3ccc(F)cc3)nc21 (centres undefined)	-12%	2%
CCOC(=O)c1cc(S(=O)(=O)Nc2ccccc2)[nH]n1	3%	-1%
Cn1c(=O)oc2cc(S(=O)(=O)NC(CC(=O)O)c3cccc(Br)c3)ccc21 (centres undefined)	-2%	-1%
Cn1cc(S(=O)(=O)N2CCCCC2)cc1C(=O)NCc1ccc(Cl)cc1	u	u
CSc1ccc(CNC(=O)c2ccc(NC(=O)c3nsc4ccccc34)cc2)cc1	u	u
Cc1cccc(CNC(=O)CCCN2C(=O)c3cccnc3Oc3ccccc32)c1	-6%	u
Cc1cccc(NC(=O)c2sc(-n3nc(C)c(CCC(C)C)c3C)nc2C)c1	-17%	-19%
CCCCN(C)C(=O)C(Cc1ccccc1)NS(=O)(=O)c1ccc2c(c1)c(=O)n(C)c(=O)n2C (centres undefined)	-65%	-7%
Cc1ccc(CN(C(=O)COc2ccc(Cl)cc2)c2ccccn2)o1	-28%	-13%
COc1ccc(CNC(=O)C2CCCN(C(=O)c3cnn(-c4ccc(F)cc4)c3-n3cccc3)C2)cc1 (centres undefined)	u	u
COc1ccc(C2NC(=O)N(C)C3=C2C(=O)N(c2cccc(C(=O)O)c2)C3)cc1 (centres undefined)	-18%	-39%
CCOc1ccccc1C(=O)NCc1nc2cccnc2n1Cc1ccc(C)cc1	u	-13%
COc1cccc(-c2noc(-c3cc(C(C)C)[nH]n3)n2)c1OC	-51%	67%[activator]
O=C(O)[C@H](O)c1ccccc1	x	0%
CCOCCOC(=O)c1ccc(NC(=O)/C=C/c2ccc(OC)c(OC)c2)cc1	-11%	u
CCCn1c(=O)sc2cc(NC(=O)c3ccc(OC)c(Br)c3)ccc21	u	u
